VACV mCherry inh: vaccinia inhibition (mCherry reporter); Vaccinia virus mCherry reporter infection, fluorescence; about a quarter of the inactives have no number; Potency, µM (top dose mostly 36.5 µM), for inactives: at the highest dose activity change, negative = inhibition, usual class: inhibitors; hit rate 0.63% among 310,000; AID 720579; active = well fitted inhibition curve with a large enough effect; inconclusive = small, poorly fitted or top-dose-only effect; inactive = no such curve, though single readings can be large or run the other way; tested in A549 cells; note: nearly all actives have a fitted effect of over 35% in size; inactives centre near -10
VACV Venus inh: vaccinia inhibition (Venus reporter); Vaccinia virus Venus reporter expression, fluorescence; Potency, µM (top dose mostly 36.5 µM), inactives show at the top dose activity change, negative = inhibition, actives largely listed as inhibitors; hit rate 0.46% among 330,000; AID 720580; active means well fitted inhibition curve with a large enough effect; inconclusive means small, poorly fitted or top-dose-only effect; inactive means no such curve, though single readings can be large or run the other way; tested in A549 cells; note: nearly all actives have a fitted effect of over 30% in size; inactives centre near -10
Numbers without * were called inactive; i = inactive; ? = inconclusive; nt = not tested or not shown; [ ] = another dose, or the depositor's remark. % is set by controls: 0 for no effect and ±100 for the full control effect; potency is the fitted concentration of half-maximal effect.

#	Molecule	VACV mCherry inh	VACV Venus inh
1	COc1cc(Cl)c(C)cc1NC(=O)Cn1ncc2c1-c1cc(C)ccc1OC2	-17%	-21%
2	CCOc1ccccc1NC(=O)CSc1nnc2[nH]c(=O)cc(C)n12	i	-7%
3	CC(C)C[C@H](NC(=O)c1nc[nH]c1C(=O)NCC(=O)OC(C)(C)C)C(=O)OC(C)(C)C	-11%	-10%
4	O=c1c(Cc2ccc(Cl)cc2)c(O)ccn1Cc1cccc(Cl)c1	nt	-2%
5	Cc1ccc(C)c(N2CCN(c3ncnc4c3nc3n4CCCCC3)CC2)c1	-9%	-12%
6	COc1ccccc1NC(=O)NC1CC(=O)N(c2ccc3c(c2)OCCO3)C1 (centres undefined)	-13%	-12%
7	CCOC(=O)N1CCN(C(=O)CSc2nnc(-c3cccc(Cl)c3)o2)CC1	5.6µM*	?
8	COc1cc(/C=N/N=C2/NC(=O)C(CC(=O)O)S2)ccc1OCc1cccc(Cl)c1 (centres undefined)	-18%	-7%
9	CCc1ccccc1N=C1S/C(=C/c2ccccc2OCC(=O)N2CCOCC2)C(=O)N1C	?	?
10	COC(=O)c1c(OCc2cccnc2)cc(=O)n2c1CCN(Cc1cc3c(cc1Cl)OCO3)CC2	?	?

Fetched by compound from above:
#	Molecule	VACV mCherry inh	VACV Venus inh
8	COc1cc(/C=N/N=C2/NC(=O)C(CC(=O)O)S2)ccc1OCc1cccc(Cl)c1 (centres undefined)	-18%	-7%
2	CCOc1ccccc1NC(=O)CSc1nnc2[nH]c(=O)cc(C)n12	i	-7%
3	CC(C)C[C@H](NC(=O)c1nc[nH]c1C(=O)NCC(=O)OC(C)(C)C)C(=O)OC(C)(C)C	-11%	-10%
10	COC(=O)c1c(OCc2cccnc2)cc(=O)n2c1CCN(Cc1cc3c(cc1Cl)OCO3)CC2	?	?
6	COc1ccccc1NC(=O)NC1CC(=O)N(c2ccc3c(c2)OCCO3)C1 (centres undefined)	-13%	-12%
1	COc1cc(Cl)c(C)cc1NC(=O)Cn1ncc2c1-c1cc(C)ccc1OC2	-17%	-21%

The results go on.
#	Molecule	VACV mCherry inh	VACV Venus inh
11	O=C(c1ccc2c(c1)N(Cc1ccc(F)cc1)C(=O)c1ccccc1S2=O)N1CCC(Cc2ccccc2)CC1 (centres undefined)	-17%	-13%
12	O=C(Nc1ccc2c(c1)OCCO2)C1c2ccccc2OCC(=O)N1Cc1ccc2c(c1)OCO2 (centres undefined)	40%[activator]	-7%
13	Cc1ccc(NC(=O)CN(C)C(=O)CN2C(=O)NC(C)(c3ccccc3)C2=O)cc1 (centres undefined)	i	-4%
14	CCOC(=O)CCNC(=O)c1ccccc1Br	i	-16%
15	CSc1ccc(Cn2c(C)c(C(=O)NCc3ccc(C(C)C)cc3)sc2=O)cc1	i	-9%
16	COC(=O)Cc1c(C)nc2nc(-c3ccccc3)[nH]n2c1=O	nt	12%
17	O=S(=O)(Cc1ccccc1Cl)CC(O)COc1ccccc1Cl (centres undefined)	-14%	-6%
18	COc1cc(-c2nnco2)cc(OC)c1OC	-7%	-2%
19	Cc1ccc(C)c(C(=O)C[n+]2cccc(Br)c2)c1	-18%	-9%
20	Cc1ccc2nc(/C(C#N)=C/c3ccc(-c4cccc(Cl)c4)o3)[nH]c2c1	-28%	-11%
21	Cc1ccc(C(=O)C(=O)c2ccc(C)c(N)c2)cc1N	-13%	-1%
22	O=C(COC(=O)CCC(=O)c1ccc(F)cc1)Nc1ccc(F)cc1F	9%	-5%
23	O=C(NC(c1ccccc1)c1ccccc1)C1(c2cccs2)CCOCC1	-17%	-7%
24	C=CCOCCN(C)C1=NS(=O)(=O)c2ccccc21	-5%	-4%
25	O=C(COC(=O)c1ccccc1O)Nc1ccc(OC(F)F)cc1	nt	-3%
26	Cc1cc(-c2onc3ccc(Cl)cc23)ccc1O	-14%	39%[activator]
27	O=C(c1ccc(Cl)cc1Cl)N1CCN(c2ccccn2)CC1	-6%	-6%
28	CC(NCc1ccc2c(c1)OCO2)C(=O)NC1CCCc2ccccc21 (centres undefined)	nt	-10%
29	CCCCn1c(SCC(=O)Nc2cccc(OC)c2)nc2c(sc3ccccc32)c1=O	-20%	-18%
30	Cc1sc2ncnc(N3CCC(C(=O)NNC(=O)COc4ccccc4F)CC3)c2c1C	-12%	-29%
31	C#Cc1ccc([C@H]2C=C(C(=O)NCc3nc4ccccc4[nH]3)O[C@@H](OCC)[C@@H]2CCCO)cc1	i	-18%
32	CCOC(=O)CN1C(=O)c2ccccc2C1=O	-9%	-11%
33	O=C(O)CN(c1ccccn1)S(=O)(=O)c1ccccc1	i	-15%
34	O=C(OCc1cc(=O)n2nc(C3CCCCC3)sc2n1)c1ccc(F)cc1	-21%	?
35	CC(=O)c1ccc(NC(=O)CSc2nnc3ccc(-c4ccc(Br)cc4)nn23)cc1	-9%	-20%
36	Cc1ccc(-c2cc(C(=O)N3CCC4(CC3)OCCO4)no2)cc1	-5%	-15%
37	CCCC(OC(=O)CC1Sc2ccccc2NC1=O)C(=O)NCc1ccco1 (centres undefined)	i	-10%
38	Nc1ccc(-c2cc3ccccc3oc2=O)cc1	-11%	0%
39	COc1ccc(CCNC(=O)CSc2nc3[nH]ncc3c(=O)n2-c2ccc(Br)cc2)cc1OC	0%	-9%
40	Cc1cc(C)nc(SCC(=O)Nc2sc3c(c2C#N)CCC(C)C3)n1 (centres undefined)	-28%	?

3 entries from above, with values under each structure.
Every second line gives: VACV mCherry inh	VACV Venus inh
(35) CC(=O)c1ccc(NC(=O)CSc2nnc3ccc(-c4ccc(Br)cc4)nn23)cc1
 : -9%	-20%
(36) Cc1ccc(-c2cc(C(=O)N3CCC4(CC3)OCCO4)no2)cc1
 : -5%	-15%
(31) C#Cc1ccc([C@H]2C=C(C(=O)NCc3nc4ccccc4[nH]3)O[C@@H](OCC)[C@@H]2CCCO)cc1
 : i	-18%

Other structures
41: CCOC(=O)c1c(S(=O)(=O)N2CCN(c3cc(Cl)ccc3C)CC2)c(C)n(C)c1C
42: Cc1ccc(S(=O)(=O)Nc2ccc(N3CCOCC3)cc2)cc1[N+](=O)[O-]
43: COc1ccc(C)cc1NC(=O)N1CCC(CN2CCC(C)CC2)CC1
44: COC(=O)c1c(NC(=O)c2cccc(OC)c2)sc2c1CCC(C(C)(C)C)C2 (centres undefined)
45: COc1cc2nc(SCc3c(C)noc3C)n(CCC3=CCCCC3)c(=O)c2cc1OC
Compound	41	42	43	44	45
VACV mCherry inh	-24%	-8%	-8%	7%	-11%
VACV Venus inh	-14%	-18%	-1%	2%	-2%

46: Cc1cc(-c2ccccc2)n2nc(C)c(C#N)c2n1
47: Cc1cccc(NC(=O)C2(c3cccs3)CCOCC2)c1
48: COCCNC(=O)CCCn1c(SCC(=O)c2ccc(F)cc2)nc2c(sc3ccccc32)c1=O
49: CN(C)Cc1ccccc1-c1nccc(N(C)C)n1
50: N#CC1=C(N)C(C#N)(C#N)[C@H](c2ccncc2)[C@H]2CN(C(=O)OCc3ccccc3)CC=C12
Compound	46	47	48	49	50
VACV mCherry inh	-7%	-19%	-15%	2%	-10%
VACV Venus inh	-6%	-4%	-7%	7%	-2%

51: COc1cccc(C(C(=O)NC2CCCCC2)N(C(=O)c2ccco2)c2ccc(-n3cnnn3)c(C)c2)c1 (centres undefined)
52: CC(C)OC(=O)c1ccc(OC(=O)c2cccnc2)cc1
53: O=C(Cc1c(F)cccc1Cl)Nc1ccccn1
54: S=c1[nH]nc(-c2ccco2)n1Cc1ccccc1
55: COc1ccc(CNC(=O)C(CC(C)C)NS(=O)(=O)c2ccc3c(c2)oc(=O)n3C)cc1 (centres undefined)
Compound	51	52	53	54	55
VACV mCherry inh	-11%	i	-15%	5%	-8%
VACV Venus inh	-1%	-10%	-5%	5%	-2%

56: COc1ccc(-c2nn(-c3cccc([N+](=O)[O-])c3)c3c2cnc2cc4c(cc23)OCO4)cc1
57: O=C1NN(c2ccc(F)c(Cl)c2)C(=O)/C1=C\c1cccc(OC(=O)c2cccs2)c1
58: CC(C)(C)C1CCC(=NNC(=S)NCc2ccccc2)CC1 (centres undefined)
59: O=c1cc(-c2ccccc2)nc(SCc2ccccc2F)[nH]1
60: COc1cc(C(C)=O)ccc1COc1ccc(C(=O)OCC(N)=O)cc1OC
Compound	56	57	58	59	60
VACV mCherry inh	-5%	nt	?	-23%	i
VACV Venus inh	9%	-13%	-5%	0%	-3%

61: O=C(Nc1ccc2c(c1)OCCO2)c1[nH]c(C(F)(F)F)nc1-c1ccccc1
62: CCc1c(C)nc2cc(-c3cc(OC)cc(OC)c3)nn2c1N1CCCC1
63: COc1ccc(C2=C(C)C(=O)N(Cc3ccc(C(=O)Nc4ccc(C)c(C)c4)cc3)S2(=O)=O)cc1
64: CC(=O)Nc1ccc(NS(=O)(=O)c2ccc3c(c2)NC(=O)CC(=O)N3)cc1
65: CCCOC(=O)c1cc(-c2ccc(C=O)o2)ccc1Cl
Compound	61	62	63	64	65
VACV mCherry inh	i	-14%	0%	-19%	-10%
VACV Venus inh	-11%	-21%	-4%	-10%	-6%

Overlap with the part before: 2 compounds, then new ones.
64: CC(=O)Nc1ccc(NS(=O)(=O)c2ccc3c(c2)NC(=O)CC(=O)N3)cc1
65: CCCOC(=O)c1cc(-c2ccc(C=O)o2)ccc1Cl
66: CC=Cc1cc2c(c(=O)o1)C(=O)C(O)C(C)O2 (centres undefined)
67: COC1(NC(=O)c2ccccc2)C(C)=CC(=O)C=C1C
68: CCC(C)[C@H](NC(=O)NCc1ccc(Cl)cc1)C(=O)OC (some centres undefined)
69: CCC(C)c1ccc(NC(=O)COC(=O)C2CCCC2)cc1 (centres undefined)
70: O=C(NC(NC(=S)Nc1c(Cl)cc(Cl)cc1Cl)C(Cl)(Cl)Cl)OCc1ccccc1 (centres undefined)
Compound	64	65	66	67	68	69	70
VACV mCherry inh	-19%	-10%	-9%	i	-21%	-1%	?
VACV Venus inh	-10%	-6%	-11%	-14%	4%	-12%	?

In the list so far, five have a furan ring, fused or not.
20: Cc1ccc2nc(/C(C#N)=C/c3ccc(-c4cccc(Cl)c4)o3)[nH]c2c1
37: CCCC(OC(=O)CC1Sc2ccccc2NC1=O)C(=O)NCc1ccco1 (centres undefined)
51: COc1cccc(C(C(=O)NC2CCCCC2)N(C(=O)c2ccco2)c2ccc(-n3cnnn3)c(C)c2)c1 (centres undefined)
54: S=c1[nH]nc(-c2ccco2)n1Cc1ccccc1
65: CCCOC(=O)c1cc(-c2ccc(C=O)o2)ccc1Cl
Compound	20	37	51	54	65
VACV mCherry inh	-28%	i	-11%	5%	-10%
VACV Venus inh	-11%	-10%	-1%	5%	-6%

(further entries)
71: Cn1nnnc1SCc1cccc2ccccc12
72: O=c1[nH]cnc2onc(-c3ccc(F)cc3)c12
73: C#CCNC(=O)C1=C[C@@H](c2cn(C(C)=O)c3ccccc23)C[C@@H](OCc2ccc(CO)cc2)O1
74: CC1(C)CC(=O)c2cc(OCC(=O)N3CCN(Cc4ccccc4)CC3)ccc2O1
75: CC(=O)Nc1ccc(Nc2cc(C)nc3c(-c4ccccc4)c(C)nn23)cc1
Compound	71	72	73	74	75
VACV mCherry inh	-3%	-22%	-7%	-13%	-12%
VACV Venus inh	-10%	-11%	-10%	3%	-20%

76: Cc1ccc(-c2cnc(C(O)c3ccc(Cl)cc3C)[nH]2)cc1 (centres undefined)
77: NC(=O)c1c(NC(=S)Nc2ccccc2)sc2c1CCCC2
78: CN1C[C@@H]2C(c3ccccc3)C3(c4ccc(C#N)cc4)CC2(C3)[C@H]1c1ccccc1 (some centres undefined)
79: Cn1c(/C=N/NC(=O)c2ccccc2)nc2ccccc21
80: Cc1ccc2[nH]c(C(=O)N/N=C/c3ccccc3O)c(C)c2c1
Compound	76	77	78	79	80
VACV mCherry inh	i	0%	?	-15%	3.5µM*
VACV Venus inh	-13%	-2%	-7%	-9%	?

81: C=CC[C@H](CC(=O)N[C@H](CO)Cc1ccccc1)C(=O)N[C@@H](COC(=O)[C@H](CC=C)CC(=O)OC(C)(C)C)Cc1c[nH]c2ccccc12
82: CCN(CC)N=Nc1cccc(NC(C)=O)c1
83: CC(C(=O)Nc1ccc2c(c1)OCO2)N(c1ccc(Cl)cc1)S(C)(=O)=O (centres undefined)
84: N#C/C(=C\c1ccc(Cl)cc1)c1nc2ccccc2o1
85: COc1cccc(NC(=O)C2CCN(S(=O)(=O)c3ccc4c(c3)C(C)(C)C(=O)N4C)CC2)c1
Compound	81	82	83	84	85
VACV mCherry inh	-25%	4%	nt	-17%	5%
VACV Venus inh	?	0%	?	-8%	-7%

86: Cc1nc2c(c(C)c1CCC(=O)NCc1ccc(F)cc1)c(=O)n(C)c(=O)n2C
87: COc1ccccc1N1CCN(C(=O)c2cc3c(-c4ccc(Cl)cc4)nn(C)c3s2)CC1
88: CCN(C(=O)CN(C)S(=O)(=O)c1ccc2c(c1)c(=O)n(C)c(=O)n2C)c1ccc(OC)cc1
89: O=C(CN1CCC(Cc2ccccc2)CC1)NC(=O)NCc1ccccc1
90: Cc1cc(NS(=O)(=O)c2ccc(NC(=O)c3ccc([N+](=O)[O-])s3)cc2)nc(C)n1
Compound	86	87	88	89	90
VACV mCherry inh	3%	i	-16%	-2%	?
VACV Venus inh	15%	-8%	-3%	-10%	?

Screening data: PubChem, National Center for Advancing Translational Sciences (NCATS)
